Calb FLC – affects C. albicans growth with fluconazole; C. albicans CaCi-2 (fluconazole-resistant clinical isolate) + fluconazole, Alamar Blue growth, 48 h; growth inhibition, % (concentration not given with the values); hit rate 0.57% among 300,000;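 active = most replicates above 75%; inconclusive = exactly half above 75%; inactive = most below 75%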;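 also: all wells also contain fluconazole at 8 µg/ml as a sub-toxic cotreatment; 0% = median of DMSO wells and 100% = median of geldanamycin control wells; wells of about 8 µL received 7.5 nL stock; the first replicate is given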
LANA-H2B inh – blocks KSHV LANA binding to histone H2A/H2B; Q9QR71; cell-free LANA-H2A/H2B peptide, fluorescence polarization; inhibition, % (concentration not given with the values); hit rate 0.6% among 320,000; AID 2629; in the data active = inhibition mostly above about 10%, no sharp cut-off; inactive = mostly below about 6.7%;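 also: stock transfer was 7.5 nL into about 10 µL; 0% = median of vehicle wells and 100% = median of positive control wells; one replicate is shown; the record names a cut of 25% in any replicate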
Target sequence (Q9QR71 whole entry, looked up): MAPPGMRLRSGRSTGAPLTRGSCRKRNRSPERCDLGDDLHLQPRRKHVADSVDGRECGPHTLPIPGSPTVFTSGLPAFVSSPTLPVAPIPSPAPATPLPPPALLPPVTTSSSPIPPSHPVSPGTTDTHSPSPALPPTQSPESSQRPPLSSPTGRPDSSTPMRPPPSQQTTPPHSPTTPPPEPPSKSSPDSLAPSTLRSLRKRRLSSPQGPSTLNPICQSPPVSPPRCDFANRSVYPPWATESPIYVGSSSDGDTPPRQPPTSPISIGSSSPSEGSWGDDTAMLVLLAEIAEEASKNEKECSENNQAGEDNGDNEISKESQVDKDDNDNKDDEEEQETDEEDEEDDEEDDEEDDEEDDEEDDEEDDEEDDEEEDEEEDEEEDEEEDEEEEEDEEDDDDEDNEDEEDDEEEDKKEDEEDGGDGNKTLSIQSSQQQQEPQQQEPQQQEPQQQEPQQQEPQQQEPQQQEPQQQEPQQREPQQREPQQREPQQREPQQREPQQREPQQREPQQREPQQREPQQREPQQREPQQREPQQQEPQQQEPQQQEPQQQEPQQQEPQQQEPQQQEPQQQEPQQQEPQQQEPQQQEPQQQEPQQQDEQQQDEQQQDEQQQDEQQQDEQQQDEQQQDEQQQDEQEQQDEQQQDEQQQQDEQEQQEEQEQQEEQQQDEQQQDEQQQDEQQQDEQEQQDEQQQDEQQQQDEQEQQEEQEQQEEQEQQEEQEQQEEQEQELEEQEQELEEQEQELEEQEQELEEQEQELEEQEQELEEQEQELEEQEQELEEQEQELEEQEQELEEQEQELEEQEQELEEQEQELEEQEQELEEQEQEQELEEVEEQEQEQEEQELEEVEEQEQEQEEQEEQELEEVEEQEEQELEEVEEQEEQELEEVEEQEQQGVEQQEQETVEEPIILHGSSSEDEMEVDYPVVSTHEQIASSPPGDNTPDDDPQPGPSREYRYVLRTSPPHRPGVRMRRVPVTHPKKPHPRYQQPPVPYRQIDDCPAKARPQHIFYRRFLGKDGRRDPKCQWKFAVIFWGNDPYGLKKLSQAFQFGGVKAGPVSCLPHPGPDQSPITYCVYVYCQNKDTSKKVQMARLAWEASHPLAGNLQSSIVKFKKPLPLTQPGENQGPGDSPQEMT
T cruzi repl – T. cruzi replication inhibition | T. cruzi beta-gal in NIH3T3, luminescence, 90 h | inhibition, % (concentration not given with the values) | hit rate 1.4% among 300,000 | AID 1885;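 active = mean inhibition across valid replicates above about 55%, limit read from the data; inconclusive = mean below that limit but half or more replicates reach it; inactive = mean below it, under half of replicates reach it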;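 also: signal also drops with host cell toxicity which is not excluded here; 0% = plate median of DMSO wells and 100% = zero luminescence signal; higher percent means less beta-gal luminescence so fewer parasites; stock transfer was 50 nL into about 50 µL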
Beta2AR agonist – activates human beta-2 adrenergic receptor causing internalization | P07550 | Am2.2-beta2AR cells, FAP receptor internalization, flow cytometry; reference of the scale not given here | response, % (no concentration beside the values) | hit rate 0.43% among 340,000 | AID 504454;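 active = response above a set limit, near 3 SD of response in nonfluorescent compounds, cut at about 42% in these data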;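 also: stock transfer was 100 nL into about 11 µL; a reference agonist was the positive control; negative values mostly stem from fluorescent compounds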
RanGTP-Imp inh – disruptors of Ran-importin-beta complex formation – biochemical, FRET, CFP-Ran, YFP-importin-beta, homogeneous, primary screen; cell-free CFP-Ran/YFP-importin-beta FRET ratio; inhibition, % (concentration not given with the values); hit rate 1.1% among 300,000; AID 2216;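 active = most replicates above 15%; inconclusive = exactly half above 15%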;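 also: 0% = DMSO wells and 100% = Ran loaded with GDP instead of GTP; wells of about 40 µL received 100 nL stock; the first replicate is given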
Beta cell apopt – beta cell apoptosis inhibition; protection from apoptosis, % (no concentration beside the values); INS-1E cytokine-induced death, ATP luminescence, 48 h; percent of positive-control rescue, neutral wells zero; AID 435005; hit rate 0.8% among 300,000;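 active = all replicates at 75% or more, or half of them and the mean; inconclusive = half reach 75% but not the mean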;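 also: 0% = cytokine-treated negative control wells and 100% = positive control rescue; higher means more ATP so stronger rescue from cytokine killing; wells of about 40 µL received 100 nL stock; the first replicate is given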
Bfl-1 A1 inh – inhibitors of the anti-apoptotic protein A1, read as caspase activation | AID 2462 | hit rate 0.066% among 330,000 | caspase activation, % (test concentration not listed) | MEF A1-2A-BIM cells, Caspase-Glo 3/7 luminescence, 3 h; percent of clofoctol response, vehicle zero;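 active = over half of replicate activation scores above 10%, or exactly half above 10 with the replicate mean above 10; inconclusive = replicate mean below 10 yet half the replicates above 10; inactive = over half of replicates below 10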;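 also: wells of about 30 µL received 50 nL stock; many hits fall short of the cut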
UCH37 DUB inh – inhibitors of human deubiquitinating enzyme UCH37 | Q9Y5K5 | purified proteasome/UCH37, Ub-AMC cleavage fluorescence | inhibition, % (no concentration beside the values) | hit rate 0.33% among 330,000 | AID 588478;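 active = mean of two replicates above 20%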;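 also: 0% = compound-free wells with enzyme and 100% = wells lacking proteasome; stock transfer was 100 nL into about 20 µL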
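Reagent: Ub-AMC substrate; assay system: Proteasome-associated human UCH37 deubiquitinase; controls: no-proteasome and no-compound wells; read-out: % inhibition of Ub-AMC cleavage fluorescence; timing: 30 min preincubation with enzyme, 25 min cleavage at room temperature; signal: AMC fluorescence from Ub-AMC cleavage, excitation 355 nm, emission 460 nm; buffer or medium: Tris-HCl pH 7.4 plus ovalbumin, ATP-MgCl2, DTT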
* marks the source's active call; other numbers are inactive results; u = inconclusive; x = no result given. Outcome played no part in choosing rows; any-hit rate near 4.3%.

SMILES	Calb FLC	LANA-H2B inh	T cruzi repl	Beta2AR agonist	RanGTP-Imp inh	Beta cell apopt	Bfl-1 A1 inh	UCH37 DUB inh
O=C(Nc1ccc(F)c(Cl)c1)C1CCCN(C2=NS(=O)(=O)c3ccccc32)C1 (stereo not given)	x	-3.9	x	7	x	6	0.4	2.2
CCOC(=O)c1c(C)[nH]c(C)c1C(=O)CSc1nc2ccccc2c(=O)n1-c1ccc(C)cc1	-21	-0.8	31	-6	0.4	2	-1.4	5.4
Cc1cc(=O)[nH]c(SCC(=O)Nc2ccc3c(c2)CCC3)c1C#N	x	-4.5	x	-3	x	-1	0.8	2.3
Cc1nc(C)c(-c2ccc(SCc3ccc([N+](=O)[O-])cc3)nn2)s1	-22	-1.8	11	11	3.2	-1	-0.5	4.2
O=C(NCC(c1cccnc1)N1CCN(c2ccc(F)cc2)CC1)OCc1ccccc1 (stereo not given)	21	-0.4	60*	3	4.0	1	0.4	-2.2
CCN(CC)CCn1c(O)c(N=O)c2ccccc21	0	3.1	-6	10	2.4	1	0.2	1.3
CCc1cc(Cn2nc(-c3ccccc3)cc2C(=O)NCc2ccccc2OC)on1	-2	4.9	-5	3	-4.1	0	0.5	x
N#CCCN(C(=S)NC(=O)C1CCCCC1)c1ccccc1F	x	0.1	x	6	x	1	0.7	2.3
O=C(NNC(=O)c1cc(-c2cccc(Br)c2)nc2ccccc12)c1csc(N2CCOCC2)n1	37	-5.2	-8	3	0.7	6	-0.5	1.5
CC(C)n1c(-c2ccccc2)nc(=S)c2c1CCCC2	-2	-0.9	5	x	6.7	-6	-0.3	2.9
Cc1ccc2nc(COc3ccc(N(C)S(=O)(=O)c4ccccc4)cc3)cc(=O)n2c1	-6	-3.4	9	17	u	6	0.5	-13
CCOc1nc(C)nc(NC(=O)NS(=O)(=O)c2ccccc2Cl)n1	-1	2.4	-9	1	1.2	1	0.8	1.6
Cc1ccc(SC[C@H](Cc2ccccc2)N2CCN(CCc3ccccc3)CCC2=O)cc1	-21	-1.2	10	24	-1.0	5	-1.3	1.1
O=S(=O)(NCC1CCCO1)c1ccc(Cl)nc1 (stereo not given)	0	1.0	-5	-6	-0.1	-8	-0.2	4.2
COc1cccc(NC(=O)N2CCCC2C(=O)NC2CCCCC2)c1 (stereo not given)	-10	6.5	-4	0	5.8	0	0.0	1.6
COC(=O)C1=C(CS(=O)(=O)c2ccccc2)NC(=O)NC1c1ccc(O)cc1 (stereo not given)	10	-2.6	-4	11	2.3	-1	-1.8	0.0
Cc1ccc(C(=O)OC(C)C(=O)Nc2ccc(Cl)cn2)s1 (stereo not given)	x	-0.6	x	-3	x	-6	-1.2	1.3
COc1ccc(S(=O)(=O)CCc2nnc(NC(=O)c3ccc(F)cc3)s2)cc1	-2	-2.2	5	0	3.6	-3	-0.5	3.8
COc1ccccc1-c1nnc(SCC(=O)Nc2ccccc2)o1	-13	-6.8	-2	-11	-4.6	3	0.7	7.5
N#CCc1nn(-c2ccccc2)c(N)c1C#N	12	-11	-2	24	u	0	0.8	0.1
O=C(NC1CCCC1)c1csc2c1CCCC2	16	-5.9	-4	-1	2.1	-6	0.1	1.9
CCOC(=O)C(=CNc1cc(C)ccn1)C(=O)OCC	14	-1.0	0	-9	-5.5	x	-0.3	2.1
Cc1ccc(C2=NOC(C)(c3nnc(-c4ccccc4)o3)C2)cc1 (stereo not given)	-8	0.3	5	-4	-0.4	-9	-0.6	0.4
O=[N+]([O-])c1ccc(OCCn2cncn2)cc1	5	-6.1	-12	-1	3.6	-6	0.2	6.0
CC1(C)Oc2ccc3ccc(=O)oc3c2/C(=C/NNC(N)=O)C1=O	-1	-1.5	-4	-3	-2.5	-8	0.5	3.4
CCOCCCNC(=O)c1ccc2c(=O)n(Cc3ccc(OC)cc3)c(=O)[nH]c2c1	-4	3.6	9	-8	0.7	-3	0.0	-2.3
CC(C)OCCCNC(=O)c1ccc(CS(=O)(=O)c2cccc(C(F)(F)F)c2)o1	8	-6.0	6	-11	0.6	-3	-0.2	3.4
COc1cc(C(=O)OCC#N)ccc1OCc1c(C)noc1C	0	0.1	7	-11	0.2	1	0.2	1.9
CN(C)CC(C)(C)CNS(=O)(=O)c1ccc(Cl)cc1	14	-1.5	-7	12	-0.9	4	0.0	2.7
CC(C)(C)c1ccc(S(=O)(=O)N2CC(C(=O)O)Oc3ccc(Cl)cc32)cc1 (stereo not given)	-2	-4.6	-1	4	2.1	x	2.1	-2.3
CCc1noc(C)c1C(=O)N1CCN(S(=O)(=O)c2ccc(Br)cc2)CC1	1	0.7	7	-4	0.7	5	1.8	1.7
CSS(=O)(=O)c1cccc2cccnc12	24	-0.3	16	-4	2.4	-2	0.1	5.2
O=c1nc(N2CCOCC2)ccn1-c1nc(-c2ccccc2)sc1-c1ccccc1	-3	-0.4	3	3	0.9	-7	-1.0	-12
CC(OC(=O)c1cccc(NS(C)(=O)=O)c1)C(=O)Nc1ccc2c(c1)OCO2 (stereo not given)	x	1.1	x	2	x	6	0.8	3.5
CCOC(=O)C(CCCOc1ccc(C(C)CC)cc1)C(=O)OCC (stereo not given)	7	-3.2	6	-11	0.3	0	0.4	-0.6
CC(C)Cc1nnc(NC(=O)CCC(=O)NC2CC2)s1	3	-3.5	-43	0	3.6	-5	1.0	2.5
COc1ccc(NC(=S)N(CCc2c(C)[nH]c3ccc(C)cc23)Cc2cccnc2)cc1	2	0.7	33	-3	-3.6	-2	-0.7	5.0
O=Nc1c(O)c2ccccc2c2ccccc12	94*	4.3	-8	-6	1.8	109*	-0.2	2.2
O=C(CSc1nnnn1-c1cccc2c1CCCC2)N1CCCCC1	-18	4.6	0	24	2.0	3	0.2	-1.0
CC(C)[C@H](NC(=O)N1CC(=O)Nc2ccccc21)C(=O)N[C@H](C(=O)O)c1ccccc1	x	-1.4	-3	2	-3.5	1	0.7	-0.9
NS(=O)(=O)c1ccc(CCNC(=O)c2cnc(Cl)c(Cl)c2)cc1	-3	-1.5	-8	-6	u	-4	0.7	2.1
CCOC(=O)c1c(S(=O)(=O)N2c3ccccc3CC2C)c(C)n(C)c1C (stereo not given)	-8	9.5	2	3	-3.3	x	0.0	4.6
O=C(NC1CCCCC1)C(=S)NCCc1ccccc1	-27	0.1	14	-1	1.4	4	0.2	0.6
Cc1cccc(OCc2nnc(SCC(=O)O)n2-c2ccccc2)c1	1	-0.3	4	-2	4.9	-9	1.0	1.0
Cc1cc(Oc2ccc(Cl)cc2)nc(-c2ccccc2O)n1	x	-2.6	21	4	1.1	-2	0.6	0.1
Cc1ccc(S(=O)(=O)CCC(=O)OC(C)C(=O)NC2CCCCC2C)cc1 (stereo not given)	-2	-2.4	-13	3	1.3	0	0.0	x
CCN(C(=O)CSc1ncccn1)C1CCS(=O)(=O)C1 (stereo not given)	14	1.4	-7	12	-0.7	-5	-2.7	3.8
CSC1=NC(C)(C)C=C(/C=C/c2ccc(Cl)cc2)N1	u	5.2	10	84*	1.2	-3	0.6	2.1
CCOc1ccccc1OCCOCCOc1c(Cl)cccc1Cl	2	-1.5	7	1	2.4	6	-0.1	1.4
Cc1cccc(NC(=O)Nc2cccc(Oc3c(F)c(F)c(F)c(F)c3F)c2)c1	0	-3.0	69*	7	-1.2	99*	-0.3	0.8
CC(C)C(=O)Nc1nnc(S(=O)(=O)N2CCc3ccccc32)s1	-3	3.6	-8	1	-0.9	-5	-0.1	6.9
Cc1cc(=O)n2cc(-c3ccccc3)nc2[nH]1	u	-5.3	-7	10	2.1	1	-2.3	-109
COc1ccc(-n2ncc3c(NCc4ccc5c(c4)OCO5)ncnc32)cc1	-26	0.9	-9	4	2.2	-4	0.5	-9.0
O=C(O)c1sccc1Oc1ccc(F)cc1[N+](=O)[O-]	2	-0.4	-11	6	-2.1	-8	0.3	x
CC(=O)c1ccc(N2CCN(CC(=O)Nc3cc(C)on3)CC2)cc1	-13	7.8	-2	-19	4.2	1	-0.2	6.5
CCCCCNC1=CC(=O)CC(c2ccccc2)C1 (stereo not given)	-12	0.3	5	-3	0.9	3	0.1	-1.7
Cc1ccc2c(c1)C(=O)N1[C@H]3c4ccccc4OC[C@@H]3[C@H](c3ccccc3)[C@]1(C)C(=O)N2	x	-7.1	x	6	x	-2	-0.1	x
COC(=O)c1ccc(Nc2ccc3nonc3c2[N+](=O)[O-])cc1	-9	5.3	-1	0	3.0	-2	0.2	2.7
CCOC(=O)c1ccc(NC(=O)CCc2c(C)nc3ncnn3c2C)cc1	3	7.0	-7	1	-2.6	x	0.3	2.7
CCCc1nnc(NC(=O)CN2C(=O)C3C4C=CC(C4)C3C2=O)s1 (stereo not given)	6	1.8	-3	-4	6.9	1	0.8	5.1

Entries of single compounds from above. Values in the order: Calb FLC | LANA-H2B inh | T cruzi repl | Beta2AR agonist | RanGTP-Imp inh | Beta cell apopt | Bfl-1 A1 inh | UCH37 DUB inh
COC(=O)c1ccc(Nc2ccc3nonc3c2[N+](=O)[O-])cc1 as listed: -9 | 5.3 | -1 | 0 | 3.0 | -2 | 0.2 | 2.7
CSC1=NC(C)(C)C=C(/C=C/c2ccc(Cl)cc2)N1 as listed: u | 5.2 | 10 | 84* | 1.2 | -3 | 0.6 | 2.1

More entries:
SMILES	Calb FLC	LANA-H2B inh	T cruzi repl	Beta2AR agonist	RanGTP-Imp inh	Beta cell apopt	Bfl-1 A1 inh	UCH37 DUB inh
CCOc1ccccc1N1CCN(C(=O)NC(C)c2ccc(F)c(F)c2)CC1 (stereo not given)	-1	5.2	-9	1	-0.3	6	0.2	2.2
CCOc1ccc(OCC)c(NC(=O)CSCCc2ccccn2)c1	-6	-2.5	7	-2	5.7	2	0.1	6.5
CCN(Cc1ccccc1)S(=O)(=O)c1ccc(OC)cc1	-8	-3.2	-5	-4	-0.9	-6	-0.6	0.3
CNC(=O)c1cc2c(s1)CCCCCC2	-21	-1.1	2	-2	-0.2	-17	0.5	6.2
C/C(=N\NC(=O)CCc1c[nH]c2ccccc12)c1ccc([N+](=O)[O-])cc1	27	-4.6	10	-9	4.6	4	0.5	x
Cc1cc(C)c(OCC(=O)N(Cc2ccc(N(C)C)cc2)C2CCS(=O)(=O)C2)c(C)c1 (stereo not given)	8	-3.2	15	1	-2.8	-3	1.1	2.4
C=CCn1c(=O)c2c(nc(Br)n2Cc2ccccc2Cl)n(C)c1=O	2	0.4	-6	5	-2.9	-1	0.2	3.5
O=C(CN(CC1CCCO1)S(=O)(=O)c1ccc(S(=O)(=O)NC2CC2)cc1)Nc1ccccc1 (stereo not given)	8	-3.7	14	0	-1.3	0	0.7	2.5
CN(C)CCCNC1=CC(=O)CC(c2ccccc2)C1 (stereo not given)	11	0.0	53	5	-0.1	-2	-0.7	5.4
CN(C(=O)CSc1nnc(-c2ccccc2)c(-c2ccccc2)n1)C1CCS(=O)(=O)C1 (stereo not given)	-9	-4.4	7	3	-1.5	5	-0.5	2.1
Cc1ccc(C(=O)NC(=S)Nc2ccc(S(=O)(=O)N3CCN(C)CC3)cc2)cc1	-10	3.7	-2	12	-2.0	-2	0.7	2.1

Screening results (PubChem)
